MT1-MMP act inh: inhibitors of human MT1-MMP activation. HT1080 RFP-PRO-GFP cells, GFP/RFP ratio fluorescence, overnight; percent of plate control window, DMSO zero. AID 651647. P50281. GFP/RFP ratio change, % at 20 µM. actives 0.061% (n = 360,000);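 active means GFP/RFP ratio change of at least 30% with cell ATP level not reduced by more than half and red fluorescence within 50% of control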; further: strong numbers were not always called active
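Read-out: GFP/RFP fluorescence ratio; Test system: RFP-PRO-GFP reporter HT1080 cells; Compound dosing: single-point 20 µM compound, 1% DMSO; Times: overnight compound exposure at 37 °C.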
Rce1 inh: yeast Ras-converting enzyme inhibition; yeast membranes, quenched prenylated peptide cleavage fluorescence; calls only; actives 0.27% (n = 290,000); AID 2563;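 active means fall in fluorescence gain of 50% or more versus controls, with final raw signal at or below 3038400; inconclusive means same 50% fall but final raw signal above 3038400; inactive means fall in fluorescence gain under 50%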;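 further: plate controls were neutral control wells for no effect and wells lacking membranes for full effect; tested at 10 µM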
Target sequence (Q03530 whole entry, looked up): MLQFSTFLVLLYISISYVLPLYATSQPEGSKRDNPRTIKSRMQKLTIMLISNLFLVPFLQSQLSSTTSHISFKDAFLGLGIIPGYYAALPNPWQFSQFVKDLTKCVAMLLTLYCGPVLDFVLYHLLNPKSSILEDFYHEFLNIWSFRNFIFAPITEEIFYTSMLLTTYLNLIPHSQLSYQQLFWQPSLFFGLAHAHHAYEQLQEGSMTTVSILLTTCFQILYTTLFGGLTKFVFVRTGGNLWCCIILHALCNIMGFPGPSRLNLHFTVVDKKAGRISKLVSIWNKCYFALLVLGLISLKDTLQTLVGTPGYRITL
Yeast UUG start: alters start codon recognition fidelity in yeast; S. cerevisiae UUG-firefly luciferase reporter, luminescence/redox ratio; activity score, % at 18.7 µM; actives 0.13% (n = 350,000); AID 602363;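 active means replicate mean at a twofold rise or more, about +100% in these data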;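 further: firefly luciferase made from a UUG start codon reports start codon fidelity; reporter light over untreated wells divided by growth signal over untreated wells; some hits fall short of that in this replicate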
PABP FP inh: PABP-poly(A) binding inhibition | P11940 | PABP-poly(A) RNA binding, fluorescence polarization | inhibition, % at 35 µM | actives 1% (n = 290,000);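 active means 50% or more with normal probe brightness, or confirmed in later tests; inconclusive means above 50% with abnormal brightness, or retests that disagree; inactive means below 50% or failed in later tests; about a fifth of its hits are not listed in these tables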;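 further: calls also rest on retests at 20 µM and on dose response follow-up; controls were probe without protein and protein plus probe with vehicle; some compounds called inactive have numbers as strong as hits; many hits fall short of the cut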
Target sequence (P11940 whole entry, looked up): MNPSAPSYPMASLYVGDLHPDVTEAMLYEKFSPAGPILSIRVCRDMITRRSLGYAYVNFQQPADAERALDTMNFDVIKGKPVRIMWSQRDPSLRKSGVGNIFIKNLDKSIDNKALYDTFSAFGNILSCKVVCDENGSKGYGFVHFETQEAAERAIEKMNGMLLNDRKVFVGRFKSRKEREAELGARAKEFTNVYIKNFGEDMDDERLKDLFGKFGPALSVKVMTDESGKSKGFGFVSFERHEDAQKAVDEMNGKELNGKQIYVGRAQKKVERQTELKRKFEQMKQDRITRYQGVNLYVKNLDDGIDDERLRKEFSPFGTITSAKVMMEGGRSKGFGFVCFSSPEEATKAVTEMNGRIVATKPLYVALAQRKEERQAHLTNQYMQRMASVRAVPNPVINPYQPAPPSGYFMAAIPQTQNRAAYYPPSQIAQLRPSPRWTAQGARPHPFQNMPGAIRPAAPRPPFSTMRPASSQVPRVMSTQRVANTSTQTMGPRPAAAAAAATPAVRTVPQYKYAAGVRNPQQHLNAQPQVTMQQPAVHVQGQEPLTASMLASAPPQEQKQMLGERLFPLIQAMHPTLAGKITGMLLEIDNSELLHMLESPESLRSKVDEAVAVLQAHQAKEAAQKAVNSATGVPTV
CSC inhib: blocks cancer stem cells | cancer stem cell-like cells viability, luminescence | inhibition, % at 7.5 µM | actives 1.1% (n = 300,000) | AID 2717;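 active means mean at 75% or more and at least half the replicates too; inconclusive means mean and replicates disagree; tested in HMLE shEcad cells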;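 further: 0% = median of negative and 100% = median of positive control wells; the first replicate is given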
Env fusion inh: HIV envelope-mediated fusion inhibition; HeLa-JRFL Env/CEM21 cell fusion, luciferase; inhibition, % at 12.3 µM; actives 1.1% (n = 360,000); AID 651610;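 active means mean replicate inhibition score of at least 50 and every replicate individually at or above 50; inconclusive means only one of the two criteria met; inactive means mean below 50 and not all replicates reaching 50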;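 further: 0% = plate neutral controls and 100% = maraviroc near 300 nM; one replicate is shown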
eIF4H inh: inhibitors of RNA binding by human eIF4H; inhibition, % at 35 µM; eIF4H fluorescence polarization binding assay; AID 2012; actives 0.94% (n = 290,000); Q15056;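 active means 50% or more with normal probe brightness, or confirmed in later tests; inconclusive means above 50% with abnormal brightness, or retests that disagree; inactive means below 50% or failed in later tests; about a fifth of its hits are not listed in these tables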;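 further: calls also rest on retests at 20 µM and on dose response follow-up; 0% = protein and probe with vehicle and 100% = probe without protein; strong numbers were not always called active; many hits fall short of the cut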
MT1-MMP act inh RFP: further read-out of MT1-MMP act inh, marked with its call; RFP signal change, %; measured here: RFP expression control read;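 0 = vehicle wells; hits needed this value within 50% of zero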
* marks the source's active call; other numbers are inactive results; i = inactive; ? = inconclusive; / = not tested or not shown; + = active, no number; & = joins results of further samples.

The first two entries, ahead of the listing:
compound	MT1-MMP act inh	MT1-MMP act inh RFP	Rce1 inh	Yeast UUG start	PABP FP inh	CSC inhib	Env fusion inh	eIF4H inh
COc1ccc2c(-c3ccccc3)cc(SCC(N)=O)nc2c1	-31	7	i	-13	53*	4	-5	80*
CN(C(=O)CSc1nnc(-c2ccccc2)n1C)C1CCS(=O)(=O)C1 (configuration not stated)	-3	1	i	/	-12	-7	-79	-20

The list itself, previewed entries included:
compound	MT1-MMP act inh	MT1-MMP act inh RFP	Rce1 inh	Yeast UUG start	PABP FP inh	CSC inhib	Env fusion inh	eIF4H inh
COc1ccc2c(-c3ccccc3)cc(SCC(N)=O)nc2c1	-31	7	i	-13	53*	4	-5	80*
CN(C(=O)CSc1nnc(-c2ccccc2)n1C)C1CCS(=O)(=O)C1 (configuration not stated)	-3	1	i	/	-12	-7	-79	-20
CCOc1ccc(N2CC(C(=O)Nc3ccc(S(=O)(=O)Nc4ncccn4)cc3)CC2=O)cc1 (configuration not stated)	-1	3	/	5	-5	/	/	-12
Cn1c2ccccc2c2nnc(SCc3nnc(-c4ccccc4)o3)nc21	/	/	i	/	51*	-4	/	-9
Cc1cccc(C)c1-n1c(=O)n(Cc2ccccc2)c(=O)c2[nH]cnc21	2	-1	i	/	3	-12	12	0
NC(=O)C(NC(=O)OCc1ccccc1)c1ccccc1 (configuration not stated)	-2	-3	i	-13	/	-11	-6	/
Cc1ccc(S(=O)(=O)N2[C@@H](c3ccc(F)cc3)C(C(=O)O)=CC[C@H]2c2cccc(Cl)c2)cc1	-1	-2	/	-10	/	21	21	/
COCCn1ccc2c(OCC(=O)NCCc3ccc(OC)c(OC)c3)cccc2c1=O	3	1	i	3	/	0	7	/
O=C(NCCOc1ccccc1)C1Nc2ccc(OC(F)(F)F)cc2C2C=CCC12 (configuration not stated)	2	-1	i	-5	/	12	-17	/
Cn1nccc1NC(=O)Nc1ccc(OC(F)(F)F)cc1	7	1	i	-12	1	7	0	1
Cc1ccc(-c2nnn(CC(=O)N(CC3CCCO3)C(C(=O)NC(C)(C)C)c3ccc(F)cc3)n2)o1 (configuration not stated)	-2	1	i	-9	-7	-9	?	-6
O=C(CCN1C(=O)c2ccccc2C1=O)Nc1ccc(-c2nc3ccccc3s2)cc1	4	1	i	-8	-7	16	-51	-12
CC(C)(C)NC(=O)/C(=C\c1cccnc1)NC(=O)c1ccco1	2	5	i	/	5	-9	-5	-12
COc1ccc([C@H]2Cc3cccc(O)c3C(=O)O2)cc1O	-4	-2	/	-13	/	-4	18	/
CS(=O)(=O)N1CCN(C(=O)CSc2ccccc2)CC1	-2	1	i	-4	5	/	8	-3
Cc1nc2ccc(NS(=O)(=O)c3ccc(F)c(F)c3F)cc2s1	-3	-9	/	-8	/	16	/	/
CCCCn1c(N)c(N(Cc2ccccc2OC)C(=O)C(C)Oc2ccc(Cl)cc2)c(=O)[nH]c1=O (configuration not stated)	-4	-2	i	-10	-6	6	/	-8
Cc1cc(=O)nc2c3ccccc3n(CC(=O)Nc3ccccc3Br)n12	3	2	i	-18	-10	2	5	-4
COc1ccc(Cl)cc1NC(=O)c1ccoc1C	1	-1	i	-18	12	5	/	9
CCCSc1ccc(C(=O)Nc2ccc(F)cc2F)cn1	4	-1	i	1	0	11	4	-10
CCN(CC1COc2ccccc2O1)C(=O)c1ccc(Cl)c(S(=O)(=O)N2CC(C)OC(C)C2)c1 (configuration not stated)	-9	-23	i	-4	/	-2	28	/
Nn1cnnc1N/N=C/c1ccc(Cl)c([N+](=O)[O-])c1	-1	1	i	/	-15	13	9	-6
COc1ccc(NC(=S)Nc2cccc([N+](=O)[O-])c2)cc1	6	1	i	-27	0	4	-15	-1
CCOC(=O)CSc1nc(N2CCOCC2)c2c(c1C#N)CC(C)(C)N(C)C2	-5	3	i	1	?	3	-39	?
O=C(NNC(=S)Nc1ccccc1Cl)c1ccccc1Br	3	4	i	-22	-8	10	-47	14
O=C(/C=C/c1ccc(Cl)cc1Cl)OCC(=O)N1CCCC1	-6	-4	/	50	/	-10	/	/
COc1cc(/C=N/Nc2nc(=O)[nH]nc2C)ccc1O	0	2	i	/	-12	34	15	2
Cc1cc(Cl)ccc1NC(=S)NCCCN1CCCC1=O	0	3	/	/	-7	-8	0	3
COC(=O)Cn1cccc1C(=O)c1ccccc1	4	3	i	1	-3	1	5	-3
CCOC(=O)c1cccc(NC(=O)c2cc3ccccc3o2)c1	1	-6	i	-12	-6	26	-65	8
C[C@@H]1CN([C@@H](C)CO)C(=O)c2cc(NC(=O)C3CC3)ccc2O[C@H]1CN(C)C	3	5	/	-2&-15	/	/	-14	/
Cc1ccc(NC(=O)Cn2cnc(C(=O)Nc3ccc(C)c(C)c3)n2)cc1C	2	3	/	-10	/	/	-8	/
COc1ccc(CNC(=O)[C@]2(C)CCC[C@@]3(C)C4CC[C@@]5(C)C[C@]4(CCC32)CC5=O)cc1 (some centres not stated)	-1	-8	/	-6	/	-17	-6	/
COc1ccc(NC(=S)Nc2cccc(C)n2)cc1	1	-3	i	-14	-7	0	-52	6
Cc1ccc(C)c2[nH]c(=O)c(CCNC(=O)C(C)(C)C)cc12	2	3	i	-1	-5	-4	-13	-10
COc1ccc2[nH]c(=O)c(CN(Cc3cccs3)S(=O)(=O)c3cccc4nsnc34)cc2c1	-36	-21	i	5	18	/	70*	-6
CCn1c(SCC(=O)NCc2cccs2)nnc1-c1ccncc1	5	2	i	-9	37	-20	/	-4
CC(C)Cn1c(-c2ccccc2)nc2ccccc2c1=O	0	-1	i	-4	-6	-17	13	-14
CCN1CCN(C(=O)c2cc3ccc(OC)cc3[nH]2)CC1	0	0	i	12	-12	0	-28	-7
Cc1ccc2c(c1)cc1c(=O)n(CC(=O)NCc3ccccn3)nc(C)n12	-6	-3	i	-13	-6	-5	/	-8
O=C(COc1ccccc1)NC1C(=O)N2C(C(=O)O)=C(Cl)CSC12 (configuration not stated)	-3	-3	i	-22	4	-22	-22	20
O=S1(=O)C=C(N2CCCCC2)c2ccccc21	-2	12	i	-9	21	4	/	9
CC(=O)NC(c1cccc(F)c1)c1nc(-c2ccc(C)c(C)c2)cs1 (configuration not stated)	1	-9	/	-11	/	/	1	/
CC(C)(C)NC(=O)C(=O)N/N=C/c1cccs1	-3	-1	i	-29	-5	1	-23	6
Cc1ccc(NC(=O)CSc2nnc(Cn3cnc4ccccc43)o2)cc1	-2	0	i	/	0	-11	-81	7
CN(C)CCNC(=O)C(=O)Nc1cc2c3c(c1)CCN3C(=O)CC2	-1	1	i	-24	12	-8	-5	13
O=C(NCc1ccccc1F)C1CCCN1S(=O)(=O)c1ccc(Cl)cc1 (configuration not stated)	1	2	i	-2	-5	-37	8	-10
O=C(COC(=O)c1ccc(Br)c(S(=O)(=O)N2CCOCC2)c1)NC1CC1	4	9	/	-10	/	-10	/	/
N#C/C(=C/Nc1ccccc1C(=O)O)C(N)=O	3	5	i	/	-1	-12	15	-5
COC(CNC(=O)c1ccc2c(c1)nc(C)n2-c1ccc(F)c(F)c1)OC	2	7	i	-6	0	-5	-19	0
COCC1CCN(C(=O)C2CCC(=O)N(CC3CCCCC3)C2)CC1 (configuration not stated)	0	3	i	-7	0	3	-1	-6
CCC1CN(C(=O)N2CCC(C(=O)Nc3ccccc3F)CC2)c2ccccc2O1 (configuration not stated)	-5	-4	i	-12	-6	0	10	-11
N#Cc1nc(COc2ccc(Cl)cc2Cl)oc1N1CCN(c2ccccc2)CC1	0	-1	i	-12	-11	2	1	-10
CCOc1ccc(-c2c(C(=O)N/N=C/c3cccs3)nnn2-c2nonc2N)cc1	2	1	+	-9	/	-10	7	/
Cc1cc(C)c2c(CC(=O)O)coc2c1	1	1	i	-12	4	/	/	-3
CCOC(=O)c1cc2c3ccccc3n(CC)c2nc1N	2	1	i	/	-3	14	/	5

New compounds follow:
compound	MT1-MMP act inh	MT1-MMP act inh RFP	Rce1 inh	Yeast UUG start	PABP FP inh	CSC inhib	Env fusion inh	eIF4H inh
O=C(C[C@@H]1C/C=C\C[C@H](NC(=O)OCC2c3ccccc3-c3ccccc32)C(=O)OC[C@@H]2CCCN2C1=O)NCCO	4	5	/	-16	/	7	6	/
COc1ccc(N=Nc2cnc(C)nc2-c2ccccc2)cc1	-1	-2	i	-7	-8	1	/	-4
CCc1cccc(NC(=O)CCCN2C(=O)C(c3ccccc3)Oc3cccnc32)c1 (configuration not stated)	1	-2	i	/	21	-1	28	10
CCCCCNC(=O)N[C@H](C(=O)O)C(C)C	2	7	i	-8	-5	9	-46	2
O=C(NC1CCCC1)C(c1ccco1)N(C(=O)c1ccco1)c1ccccc1 (configuration not stated)	1	1	i	4	-10	13	-1	-1
Cc1nn(Cc2c(Cl)cccc2Cl)c(Cl)c1/C=C/C(=O)OCC(=O)NCC(F)(F)F	4	-1	i	-22	2	7	/	1
C=CCN1C(=S)N[C@@H]2CS(=O)(=O)C[C@@H]21	0	2	i	24	7	-4	-7	8
Cc1nc2cc3nc(C)sc3cc2s1	-4	-2	i	-15	-4	-5	/	-5
CCOc1ccc2nc(NS(=O)(=O)c3ccc4c(c3)n(C)c(=O)n4C)sc2c1	1	-1	i	1	17	-8	-17	4
COc1ccc(-c2nnn(CC(=O)N(Cc3ccccc3Cl)C(C(=O)NCC3CCCO3)c3ccco3)n2)cc1 (configuration not stated)	-7	-7	i	11	11	-14	-91	7
COc1cc(-c2cc(C(=O)NCc3ccco3)c3ccccc3n2)cc(OC)c1OC	9	2	i	12	2	-7	-1	-16
CN(CCc1ccccn1)C(=O)c1cccnc1Oc1ccc(Cl)cc1	1	1	i	-4	4	-9	-8	6
CCN1CCN(C/C(C)=C/c2ccccc2)CC1	1	4	i	-2	11	-2	2	-10
COc1ccc(OC)c(NC(=O)c2cc(S(=O)(=O)N(C)C)ccc2N2CCCC2)c1	-3	-2	i	3	/	-2	-4	/
CCOc1ccc(CCN2C(=O)c3ccc(C(=O)O)cc3C2=O)cc1OCC	0	1	i	-7	0	10	3	3
Cn1nc(C(=O)Nc2ccc(Br)cc2)cc1C(=O)Nc1ccc(Br)cc1	1	4	i	3	-4	-10	-350	-21

Screening results: PubChem BioAssay, several laboratories

This is a subset (hit frequency here may not be typical).
